Compound activity from PubChem BioAssay.
Bfl-1 A1 inh: caspase 3/7 activation in MEF A1-2A-BIM cells, primary screen, A1 inhibitor project, cell-based, luminescence, HTS; Caspase-Glo 3/7 luminescence, 3 h; percent of clofoctol response, vehicle zero; AID 2462, 2010; actives 0.066% (n = 330,000); caspase activation, % (concentration not given with the values);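 active means over half of replicate activation scores above 10%, or exactly half above 10 with the replicate mean above 10; inconclusive means replicate mean below 10 yet half the replicates above 10; inactive means over half of replicates below 10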;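 further: wells of about 30 µL received 50 nL stock; many hits fall short of the cut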
UCH37 DUB inh: inhibitors of human UCH37 deubiquitinase, primary screen, biochemical, Ub-AMC cleavage, fluorescence; purified proteasome/UCH37; inhibition, % (no concentration beside the values); AID 588478, 2011; Ubiquitin carboxyl-terminal hydrolase isozyme L5 (Homo sapiens), Q9Y5K5; actives 0.33% (n = 330,000);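 active means mean of two replicates above 20%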;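 further: 0% = compound-free wells with enzyme and 100% = wells lacking proteasome; stock transfer was 100 nL into about 20 µL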
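Material: Human UCH37 enzyme supplied as purified proteasome complex | Schedule: 30 min compound-proteasome preincubation then 25 min substrate reaction, room temperature | Detection: AMC fluorescence from Ub-AMC cleavage, excitation 355 nm, emission 460 nm | Benchmarks: Wells without proteasome as full block, compound-free enzyme plus substrate as uninhibited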
Calb FLC: C. albicans growth inhibition with fluconazole, primary screen, CaCi-2 strain, Alamar Blue fluorescence; growth inhibition, % (test concentration not listed); AID 1979, 2009; actives 0.57% (n = 300,000); C. albicans CaCi-2 (fluconazole-resistant clinical isolate) + fluconazole, 48 h;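 active means most replicates above 75%; inconclusive means exactly half above 75%; inactive means most below 75%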;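 further: all wells also contain fluconazole at 8 µg/ml as a sub-toxic cotreatment; 0% = median of DMSO wells and 100% = median of geldanamycin control wells; wells of about 8 µL received 7.5 nL stock; the first replicate is given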
T cruzi inh: inhibitors of intracellular T. cruzi growth, primary screen, luminescence, NIH3T3 host cells. actives 1.4% (n = 300,000). AID 1885, 2009. inhibition, % (concentration not given with the values). T. cruzi beta-gal in NIH3T3, 90 h;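 active means mean inhibition across valid replicates above about 55%, limit read from the data; inconclusive means mean below that limit but half or more replicates reach it; inactive means mean below it, under half of replicates reach it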;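 further: signal also drops with host cell toxicity which is not excluded here; 0% = plate median of DMSO wells and 100% = zero luminescence signal; higher percent means less beta-gal luminescence so fewer parasites; stock transfer was 50 nL into about 50 µL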
Beta apoptosis: inhibitors of cytokine-induced beta cell apoptosis, primary screen, luminescence | INS-1E cytokine-induced death, ATP luminescence, 48 h; percent of positive-control rescue, neutral wells zero | protection from apoptosis, % (concentration not given with the values) | actives 0.8% (n = 300,000) | AID 435005, 2010;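 active means all replicates at 75% or more, or half of them and the mean; inconclusive means half reach 75% but not the mean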;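 further: 0% = cytokine-treated negative control wells and 100% = positive control rescue; higher means more ATP so stronger rescue from cytokine killing; wells of about 40 µL received 100 nL stock; the first replicate is given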
RanGTP-Impb inh: inhibitors of RanGTP-importin-beta interaction, primary screen, biochemical, FRET, CFP-Ran, YFP-importin-beta, homogeneous | Ran GTPase (GTP-bound) - importin-beta complex | cell-free CFP-Ran/YFP-importin-beta FRET ratio | inhibition, % (no concentration beside the values) | actives 1.1% (n = 300,000) | AID 2216, 2009;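 active means most replicates above 15%; inconclusive means exactly half above 15%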;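 further: 0% = DMSO wells and 100% = Ran loaded with GDP instead of GTP; wells of about 40 µL received 100 nL stock; the first replicate is given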
B2AR ag: beta2AR agonists driving receptor internalization, primary screen, cell-based, FAP fluorogen, flow cytometry. Beta-2 adrenergic receptor (Homo sapiens), P07550. Am2.2-beta2AR cells; reference of the scale not given here. response, % (concentration not given with the values). actives 0.43% (n = 340,000);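 active means response above a set limit, near 3 SD of response in nonfluorescent compounds, cut at about 42% in these data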;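 further: stock transfer was 100 nL into about 11 µL; a reference agonist was the positive control; negative values mostly stem from fluorescent compounds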
LANA-H2A inh: blockers of LANA interaction with H2A/H2B – biochemical, FP readout, HTS, primary screen; actives 0.6% (n = 320,000); AID 2629, 2010; inhibition, % (concentration not given with the values); Protein LANA1 (Human herpesvirus 8 type P (isolate GK18)), Q9QR71; cell-free LANA-H2A/H2B peptide, fluorescence polarization; in the data active means inhibition mostly above about 10%, no sharp cut-off; inactive means mostly below about 6.7%;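 further: stock transfer was 7.5 nL into about 10 µL; 0% = median of vehicle wells and 100% = median of positive control wells; one replicate is shown; the record names a cut of 25% in any replicate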
Target sequence (Q9QR71 whole entry, looked up): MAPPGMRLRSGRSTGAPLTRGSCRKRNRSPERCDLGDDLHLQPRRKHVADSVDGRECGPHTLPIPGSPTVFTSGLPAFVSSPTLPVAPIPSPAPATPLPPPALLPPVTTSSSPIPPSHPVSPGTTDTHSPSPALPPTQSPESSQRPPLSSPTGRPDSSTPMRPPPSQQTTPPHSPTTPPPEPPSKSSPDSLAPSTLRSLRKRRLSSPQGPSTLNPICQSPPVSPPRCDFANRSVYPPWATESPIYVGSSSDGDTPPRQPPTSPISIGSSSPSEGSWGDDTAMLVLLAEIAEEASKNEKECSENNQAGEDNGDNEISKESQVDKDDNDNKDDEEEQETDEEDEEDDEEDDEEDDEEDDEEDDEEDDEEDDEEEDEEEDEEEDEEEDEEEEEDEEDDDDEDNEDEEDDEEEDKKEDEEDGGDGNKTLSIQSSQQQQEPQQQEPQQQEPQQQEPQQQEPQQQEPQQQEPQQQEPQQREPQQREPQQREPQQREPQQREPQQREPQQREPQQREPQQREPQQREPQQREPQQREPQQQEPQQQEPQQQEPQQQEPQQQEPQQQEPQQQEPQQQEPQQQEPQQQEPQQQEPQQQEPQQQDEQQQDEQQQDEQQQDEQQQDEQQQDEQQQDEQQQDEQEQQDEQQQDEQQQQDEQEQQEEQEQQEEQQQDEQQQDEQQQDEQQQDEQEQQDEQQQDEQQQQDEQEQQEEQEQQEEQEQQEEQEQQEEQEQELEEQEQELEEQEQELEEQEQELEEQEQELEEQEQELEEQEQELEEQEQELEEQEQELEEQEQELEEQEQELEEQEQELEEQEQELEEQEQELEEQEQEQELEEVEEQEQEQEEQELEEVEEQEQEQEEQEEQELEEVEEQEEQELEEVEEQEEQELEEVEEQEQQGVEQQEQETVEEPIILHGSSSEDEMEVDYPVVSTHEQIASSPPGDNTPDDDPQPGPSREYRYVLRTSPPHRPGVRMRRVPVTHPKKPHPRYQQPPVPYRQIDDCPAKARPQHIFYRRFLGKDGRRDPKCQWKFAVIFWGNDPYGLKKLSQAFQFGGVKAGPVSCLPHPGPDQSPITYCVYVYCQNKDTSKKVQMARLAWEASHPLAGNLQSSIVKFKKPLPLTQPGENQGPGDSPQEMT
* marks the source's active call; other numbers are inactive results; ? = inconclusive; . = not tested or not shown.

SMILES	Bfl-1 A1 inh	UCH37 DUB inh	Calb FLC	T cruzi inh	Beta apoptosis	RanGTP-Impb inh	B2AR ag	LANA-H2A inh
COc1cc(C(=O)Nc2ccc(C#N)cc2)c([N+](=O)[O-])cc1OC	1.0	2.6	-6	-7	.	0.0	-4	0.0
O=C1C2C3CCCC3=C3CCCC3C2C(=O)N1c1cccc(Cl)c1 (stereo not given)	0.3	19	-5	12	-1	-5.5	-2	-4.7
COc1ccc(NC(=S)N(CCc2nc3cc(C)c(C)cc3[nH]2)Cc2cccnc2)cc1	-2.2	6.8	-1	53	4	-3.4	3	2.3
Cc1cc(C(=O)CN2C(=O)C(=O)N(Cc3ccco3)C2=O)c(C)n1CCc1ccccc1	0.0	5.6	.	.	-8	.	-12	1.6
CC(=O)c1ccc(OCc2cc(C(=O)NCCc3ccc(Cl)cc3)no2)cc1	-1.2	2.2	0	-15	-1	0.9	3	0.8
CC(C)(C)c1ccc(C(=O)NC(Cc2ccccc2)C(=O)O)cc1 (stereo not given)	0.4	3.7	21	-2	-2	0.8	6	3.2
COc1cc(N2CCOCC2)ncn1	0.5	3.5	-16	-15	-7	-2.9	11	-4.9
CC(C)c1cccc(C(C)C)c1NC(=O)COC(=O)c1ccc(OCC(=O)Nc2cccc(C(F)(F)F)c2)cc1	-0.1	0.5	-16	-4	-7	2.7	-4	-1.9
CN(CC(=O)Nc1ccc(F)cc1)C(=O)COC(=O)C1CCN(c2ccc(C(F)(F)F)cn2)CC1	0.5	1.7	0	4	-2	4.8	3	-3.1
C=CCn1c(CC(C)(C)C)nc2ccccc21	2.2	1.0	-4	-3	3	5.4	-7	-3.3
COc1ccc(NC(=O)CSc2nnc(CCC(=O)Nc3ccc(C)c(Cl)c3)n2C)cc1	0.8	6.2	5	-9	0	5.3	0	-0.2
COc1cc(NS(=O)(=O)c2ccc(NC(=O)/C=C/C(=O)O)cc2)nc(OC)n1	1.2	1.0	3	0	.	5.5	-6	0.2
CCOC(=O)C1(C(=O)OCC)C(c2ccccc2)CC(O)N1C(C)=O (stereo not given)	.	1.4	5	0	.	0.7	-2	.
N#Cc1cccc(NC(=O)CSc2sc3c(O)cc(=O)[nH]c3c2C#N)c1	0.9	7.7	16	-15	3	-1.5	4	-0.1
CC(=O)c1ccc(NC2c3ncccc3C(=O)N2Cc2ccc(F)cc2)cc1 (stereo not given)	.	3.8	-15	-10	.	3.1	-9	.
COC(=O)c1cccc(NC(=O)C(C)(C)C)c1	0.5	1.7	-4	-13	-6	-2.6	-16	0.0
COc1ccccc1N=Nc1c(C)n[nH]c1C	0.7	9.3	10	-17	-2	5.3	4	0.3
O=C(c1c(F)cccc1F)N1CCN(S(=O)(=O)c2ccc3c(c2)OCCO3)CC1	-0.9	2.9	.	.	-8	.	-9	1.4
CC1=C(C(=O)OCc2ccccc2)C(c2ccc(C#N)cc2)NC(=O)N1CCCC(=O)O (stereo not given)	-0.1	4.5	-14	-11	0	6.3	-6	-0.3
O=C(O)c1ccccc1C(=O)NCCCn1ccnc1	0.9	3.0	4	9	-1	-0.7	-4	1.2
CCCCCCSc1cc(-c2nc3ccc(Cl)cn3c2NC2CCCCC2)ccc1OC	-1.3	-57	-9	1	10	?	-1	1.0
CS(=O)(=O)N(CC(=O)Nc1ccc(Br)cc1)C1CCCCC1	-0.5	5.3	14	1	0	-4.7	-7	0.7
COc1ccc(-n2nc(C(=O)NCC(=O)NCCCN3CC(C)CC(C)C3)c3ccccc3c2=O)cc1 (stereo not given)	0.6	-0.1	3	19	-9	3.6	-4	-3.8
N/C(Cc1nc(-c2ccc(Br)cc2)cs1)=N\O	-0.2	.	99*	49	-4	0.4	1	1.4
CCN(Cc1nc(-c2ccc(Cl)cc2)no1)CC1CCCO1 (stereo not given)	-0.2	0.5	-15	-6	-6	?	-2	-2.7
COc1ccc(-c2oc3c(OC)c(OC)c(OC)c(O)c3c(=O)c2OC)cc1OC	-1.2	-1.3	20	-7	9	0.4	2	7.0
CC(NC(=O)/C(=C\c1cccc([N+](=O)[O-])c1)NC(=O)c1ccco1)C(=O)O (stereo not given)	-0.1	2.9	6	-1	.	-2.2	1	-2.7
C=CCOn1c(=O)c(-c2ccc(Cl)cc2)[n+]([O-])c2ccccc21	.	-5.9	-2	-10	.	-2.9	-3	.
COc1cccc(-c2nc(CS(=O)CC(=O)NCCc3ccc(C)cc3)c(C)o2)c1 (stereo not given)	0.6	2.2	28	10	-11	1.1	5	0.3
O=C(C(c1ccccc1)c1ccccc1)N1CCOCC1	1.2	0.3	-1	15	2	4.0	-3	-2.9

2 compounds drawn at random from the list so far:
SMILES	Bfl-1 A1 inh	UCH37 DUB inh	Calb FLC	T cruzi inh	Beta apoptosis	RanGTP-Impb inh	B2AR ag	LANA-H2A inh
C=CCOn1c(=O)c(-c2ccc(Cl)cc2)[n+]([O-])c2ccccc21	.	-5.9	-2	-10	.	-2.9	-3	.
CCN(Cc1nc(-c2ccc(Cl)cc2)no1)CC1CCCO1 (stereo not given)	-0.2	0.5	-15	-6	-6	?	-2	-2.7

(listing goes on)
SMILES	Bfl-1 A1 inh	UCH37 DUB inh	Calb FLC	T cruzi inh	Beta apoptosis	RanGTP-Impb inh	B2AR ag	LANA-H2A inh
CCOc1ccc(S(=O)(=O)Nc2ccc(S(=O)(=O)Nc3cc(OC)ccc3OC)cc2)cc1	0.1	1.3	-7	-13	1	-3.1	11	5.5
Cc1ccc(OCC(=O)O/N=C(\N)Cc2ccc([N+](=O)[O-])cc2)cc1C	0.2	3.3	-4	18	.	-0.2	0	-2.3
CSC1=C(C#N)C(c2sccc2C)CC(=O)N1 (stereo not given)	0.7	3.6	6	15	-5	4.1	4	-0.1
COC(=O)CCCN=C1SCCN1Cc1ccccc1	0.3	-2.8	2	-2	3	0.1	7	2.5
CCOc1ccc(N2C(=O)CC(N3CCC(NC(=O)Nc4ccccc4)CC3)C2=O)cc1 (stereo not given)	-1.0	5.6	-1	-15	-5	?	3	-1.7
CS(=O)(=O)c1ccc(C(=O)NCc2ccccc2F)cc1	1.2	4.7	-6	-17	4	3.1	0	-1.4
COc1ccc(/C(C)=N/Nc2nc3ccccc3n3cnnc23)cc1OC	-0.1	.	0	6	8	-0.9	.	-1.4
COc1cc(CNn2cn[nH]c2=S)cc(Br)c1OCc1ccccc1F	-1.8	1.7	15	6	-2	4.1	10	-1.1
O=C1CC(c2ccco2)CC(O)=C1C=NCC1CCNCC1 (stereo not given)	-0.2	-2.7	-4	-2	-4	7.7	-10	8.0
COC(=O)c1cc(C(=O)Nc2cccc(C)n2)cc([N+](=O)[O-])c1	-0.5	-1.4	0	-3	-4	0.7	0	3.6
Cn1cccc1Cc1nnc(SCC(=O)NCc2ccco2)n1CCc1ccccc1	-0.5	3.7	3	1	4	-3.2	6	2.6
CC(/C=C/C=C/c1ccccc1)=N/NC(=O)CNc1ccccc1C	-0.7	.	1	5	-2	-2.1	-3	-2.6
Cc1ccc(-c2nnc(-c3ccccc3)o2)cc1	-7.9	2.2	7	-5	3	5.7	-6	-0.6
COc1ccc(CNc2nc(NCc3ccc(OC)c(OC)c3)n(C(=O)c3cccs3)n2)cc1OC	1.1	5.7	10	35	-14	0.5	20	0.8
CCOc1ccc(N2CC(C(=O)NCc3cccc(C)c3)CC2=O)cc1 (stereo not given)	0.5	1.1	11	.	3	0.3	12	1.2

In the list so far, these contain a nitro group on carbon.
SMILES	Bfl-1 A1 inh	UCH37 DUB inh	Calb FLC	T cruzi inh	Beta apoptosis	RanGTP-Impb inh	B2AR ag	LANA-H2A inh
COc1cc(C(=O)Nc2ccc(C#N)cc2)c([N+](=O)[O-])cc1OC	1.0	2.6	-6	-7	.	0.0	-4	0.0
CC(NC(=O)/C(=C\c1cccc([N+](=O)[O-])c1)NC(=O)c1ccco1)C(=O)O (stereo not given)	-0.1	2.9	6	-1	.	-2.2	1	-2.7
Cc1ccc(OCC(=O)O/N=C(\N)Cc2ccc([N+](=O)[O-])cc2)cc1C	0.2	3.3	-4	18	.	-0.2	0	-2.3
COC(=O)c1cc(C(=O)Nc2cccc(C)n2)cc([N+](=O)[O-])c1	-0.5	-1.4	0	-3	-4	0.7	0	3.6

The main list resumes, repeating the 2 entries before the break.
SMILES	Bfl-1 A1 inh	UCH37 DUB inh	Calb FLC	T cruzi inh	Beta apoptosis	RanGTP-Impb inh	B2AR ag	LANA-H2A inh
COc1ccc(CNc2nc(NCc3ccc(OC)c(OC)c3)n(C(=O)c3cccs3)n2)cc1OC	1.1	5.7	10	35	-14	0.5	20	0.8
CCOc1ccc(N2CC(C(=O)NCc3cccc(C)c3)CC2=O)cc1 (stereo not given)	0.5	1.1	11	.	3	0.3	12	1.2
COc1ccc(NC(=O)CSc2nc3sc(C)cc3c(=O)n2C)cc1	-0.9	2.8	-2	-10	1	25	2	-1.7
O=S(=O)(c1ccc(Cl)cc1)N1CCCC(C(F)(F)F)C1 (stereo not given)	-0.2	2.0	-1	-13	-5	2.9	4	-8.6
COc1ccc(C(C)(C)C)cc1NC(=O)COC(=O)C(C)C	0.3	-0.5	4	2	-1	1.8	4	3.1
O=C1CCc2cc(S(=O)(=O)Nc3ccc(F)cc3)cc3c2N1CC3	1.4	1.1	1	-4	1	-2.0	-1	-2.0
O=C(CCCc1nc2ccccc2s1)Nc1ccc(N2CCOCC2)cc1	0.1	-1.3	-5	-2	3	-2.1	0	-6.4
O=C(CS(=O)(=O)c1ccccc1)c1cc2ccccc2oc1=O	1.2	-7.9	?	-1	0	7.2	2	2.8
CCN(CC)C(=O)COc1coc(CN2CCN(c3ccccc3)CC2)cc1=O	0.4	0.7	2	11	.	2.2	17	2.5
C/C(CC(=O)NC(C)(C)C)=N\NC(=O)c1ccco1	-0.1	.	1	-3	3	-0.6	14	1.9
COC(=O)c1cc(NC(=O)Cc2cc(OC)c(OC)c(OC)c2)cc(C(=O)OC)c1	0.6	-4.3	17	-2	-2	-0.2	6	-0.5
Cc1ccc(C(=O)Nc2ccc(NC(=O)c3ccc(C)o3)cc2)o1	-0.4	0.8	6	5	-2	1.5	2	-3.7
Brc1ccccc1CN1CCN(Cc2c[nH]c3ccccc23)CC1	2.1	0.4	50	7	130*	?	14	-2.6
